Bioassay records as filed in PubChem.
VACV Venus inh – vaccinia inhibition (Venus reporter); Vaccinia virus Venus reporter expression, fluorescence; 0.46% of 330,000 active; AID 720580; Potency, µM (top dose mostly 36.5 µM), without a hit: at the highest dose activity change, negative = inhibition, most hits filed as inhibitors; active means well fitted inhibition curve with a large enough effect; inconclusive means small, poorly fitted or top-dose-only effect; inactive means no such curve, though single readings can be large or run the other way; tested in A549 cells; also: nearly all actives have a fitted effect of over 30% in size; inactives centre near -10
Vaccinia mCherry – inhibitors of vaccinia virus infection (mCherry reporter signal) | Vaccinia virus mCherry reporter infection, fluorescence; about a quarter of the inactives have no number | Potency, µM (doses to about 36.5 µM), for inactives: at the highest dose activity change, negative = inhibition, hits mostly inhibitors | 0.63% of 310,000 active; active = well fitted inhibition curve with a large enough effect; inconclusive = small, poorly fitted or top-dose-only effect; inactive = no such curve, though single readings can be large or run the other way; tested in A549 cells; also: nearly all actives have a fitted effect of over 35% in size; inactives centre near -10
Active calls of the source: *; i = inactive; u = inconclusive; x = no result given; & = joins results of further samples; [ ] = dose if it differs, or a comment. % is scaled to controls: 0 for no effect and ±100 for the full control effect; potency is read from the fitted curve at half-maximal effect.

Molecule	VACV Venus inh	Vaccinia mCherry
CCN(CC)CC(=O)Nc1ccc(Oc2ccc(NC(=O)CN(CC)CC)cc2)cc1	-11%	-11%
CC1=C(C(=O)Nc2ccccc2)C2(CCCCC2)C(C#N)=C(SCC(N)=O)N1	-9%	i
O=C(NCC(c1ccco1)N1CCN(c2ccccc2F)CC1)C1CCCCC1 (centres undefined)	-25%	u
CCC(C)N(C(=O)CSc1nnc(-c2cccs2)n1C1CC1)C1CCS(=O)(=O)C1 (centres undefined)	0%	i
O=C(Cn1cc(C(=O)c2ccco2)c2ccccc21)NC1CCCC1	-6%	-13%
O=c1[nH]c(/C=C/c2ccccc2[N+](=O)[O-])nc2ccccc12	-7%	-1%
CCOc1ccc(N2C(=O)CS/C2=N/NC(=O)COc2ccc3ccccc3c2)cc1	-11%	-24%
O=C(CCN=C1NS(=O)(=O)c2ccccc21)OCC(=O)c1ccccc1	-7%	-11%
Cc1cc2nc(C)c(Cl)c(=O)n2[nH]1	0%	3%
[O-]/C(=C(\C(=S)NCc1ccccc1)[n+]1ccccc1)c1ccc(Cl)s1	-9%	-11%
CC1CCCCN1Cc1cnc(Cl)s1 (centres undefined)	-3%	-10%
O=[N+]([O-])c1ccc(F)c(CN2CCN(c3ncc(Cc4ccccc4)cn3)CC2)c1	-11%	-4%
CCN1C(=O)N(c2ccc(Cl)cc2)C(C)=CC1(C)C	-15%	i
Cc1cc(C)c(S(=O)(=O)Nc2ccc3oc4c(c3c2)CCCC4)cc1C	7%	-14%
Cc1ccccc1NC1=C/C(=N\S(=O)(=O)c2ccc(C(=O)O)cc2)c2ccccc2C1=O	u	32µM*
CCOc1ccc(NC(=O)C(=O)NCCc2csc(-c3ccc(C)cc3)n2)cc1	-5%	-1%
Cc1nn(C(=O)c2cccc([N+](=O)[O-])c2C)c(C)c1S(=O)(=O)N1CCOCC1	-8%	-3%
CCc1ccc(CN(C)C(C)C(=O)NCc2ccccc2)cc1 (centres undefined)	-8%	-1%
CCCn1c2c(c(O)c(C(=O)Nc3ncccc3O)c1=O)CCCC2	-21%	x
CC(NC(N)=O)C(=O)Nc1ccc(Cl)c(S(=O)(=O)Nc2ccc(Cl)cc2)c1 (centres undefined)	-14%	i
Cc1cccc(C)c1NC(=O)CN1CCN(CCCC(c2ccc(F)cc2)c2ccc(F)cc2)CC1	u	u
Cc1ccc2cc(CN(Cc3nnnn3C3CCCCC3)CC3CCCO3)c(=O)[nH]c2c1 (centres undefined)	-20%	-5%
Cc1cccc(OCCC(=O)Nc2cc(S(=O)(=O)N3CCCCC3)ccc2N2CCOCC2)c1	-1%	-13%
Cc1cc(NC(=O)CSc2nc3ccccc3c(=O)n2-c2ccccc2)no1	-4%	-13%
Cc1ccccc1Nc1c(-c2ccncc2)nc2ccc(Br)cn12	-29%	-28%
COC(=O)c1ccc(Oc2coc3cc(OCc4cnn(-c5ccccc5)c4)ccc3c2=O)cc1	0%	1%
CC1CN(C(=O)c2ccc(OC3CCN(Cc4ccccn4)CC3)cc2)CCN1C (centres undefined)	-10%	i
CN(CCc1ccccc1)C(=O)c1cccc(NC(=O)Cc2cccc(NC(=O)C3CCCN(S(=O)(=O)c4cccc([N+](=O)[O-])c4)C3)c2)c1 (centres undefined)	-19%	u
Cc1ccc(S(=O)(=O)N2CCC(C(=O)OCC(=O)N(CCC#N)c3ccc(F)cc3)CC2)cc1C	-11%	i
O=P(O)(CCc1ccccn1)CN1CCOCC1	-15%	-17%

Overlap with the part before: 3 entries, then new ones.
Molecule	VACV Venus inh	Vaccinia mCherry
CN(CCc1ccccc1)C(=O)c1cccc(NC(=O)Cc2cccc(NC(=O)C3CCCN(S(=O)(=O)c4cccc([N+](=O)[O-])c4)C3)c2)c1 (centres undefined)	-19%	u
Cc1ccc(S(=O)(=O)N2CCC(C(=O)OCC(=O)N(CCC#N)c3ccc(F)cc3)CC2)cc1C	-11%	i
O=P(O)(CCc1ccccn1)CN1CCOCC1	-15%	-17%
CCOC(=O)CSc1nc2ccccc2c(=O)n1CC(C)C	-2%	7%
Cc1c(/C=N/NC(=O)c2cccs2)c2ccccc2n1Cc1ccccc1Cl	9%	i
O=C(NCCCN1CCOCC1)c1sc2cc([N+](=O)[O-])ccc2c1Cl	1%	-1%
CC1Cc2cc(/C(O)=C3/C(=O)C(=O)N(Cc4ccco4)C3c3cccs3)ccc2O1 (centres undefined)	-17%	x
CCN(Cc1ccccc1)C(=O)CCS(=O)(=O)c1ccc2c(c1)NC(=O)CO2	-5%	i
COc1cc2c(C(=O)O)c(C)n(C)c2cc1Br	-13%	i
O=[N+]([O-])c1ccccc1CNC1CCCCCC1	-15%	-5%
CCN(c1ccccc1)c1nc(C#N)nc(N(CC)c2ccccc2)n1	-21%&-13%	u
CN=c1scc(C)n1/N=C/c1ccc2c(c1)OCO2	-21%	x
CC1(c2nnc(-c3ccccc3)o2)CC(c2cccc(Cl)c2)=NO1 (centres undefined)	-15%	i
CCOc1cc(/C=N/N=C(N)N)ccc1OCc1ccc(Cl)cc1	-21%	-1%
COC(=O)c1c(F)c(F)c(NCCO)c(F)c1F	-3%	-1%
Cc1cn2c(=O)cc(COC(=O)c3cccc(NC(=O)COc4ccccc4)c3)nc2s1	-15%	-23%
COc1cc(NC(=O)Cn2cnc3sc(C)c(S(=O)(=O)N4CCC(C)CC4)c3c2=O)cc(OC)c1OC	-11%	1%
CCN(CC)CC(=O)N1CCCC(C(=O)c2ccccc2OC)C1 (centres undefined)	-12%	i
COc1cccc(NC(=O)c2oc3ccc(S(=O)(=O)N4CCCCCC4)cc3c2C)c1	-13%	-19%
O=C1NC(=Nc2ccc(F)cc2)SC1Cc1ccc(F)cc1 (centres undefined)	-20%	i
COc1ccc(OC)c(Cc2nnc(CCC(=O)N3CCCCC3)o2)c1	11%	i
Cc1nc(-c2ccccn2)sc1C(=O)Nc1ccc(Cl)c(Cl)c1	-29%	-10%
CCCCS(=O)(=O)c1sc2nc(C)cc(C)c2c1N	-15%	i
COc1ccc2oc3cc(Cl)ccc3c(=O)c2c1	0%	i
CC(=O)c1ccc(NC(=O)CCc2c(C)nn(-c3ccc4nncn4n3)c2C)cc1	-3%	-6%
O=C(NCCCCNC(=O)C(F)(F)F)C(F)(F)F	4%	-23%
CCCCN(C(=O)c1c(CC)noc1C)c1c(N)n(CC(C)C)c(=O)[nH]c1=O	-3%	-9%
O=C(O)C1=CCCc2ccc(F)cc21	2%	-26%
CCN(CC)c1ncnc2c1ncn2[C@H]1CN(CCOC)C[C@@H](CO)O1	4%	3%
CN(C1CCCCC1)S(=O)(=O)c1ccc(NC(=O)c2ccco2)cc1	-14%	x
CCCc1nnc(NC(=O)CN2C(=O)c3ccccc3C2=O)s1	-10%	x
Cc1c(C(=O)Nc2ccccc2)cc(-c2ccccc2)n1CCCN1CCOCC1	-7%	-23%
CCNC(=S)Nc1cc(Cl)ccc1Oc1ccccc1	-12%	-29%

Nothing new here: 2 of the compounds above.
Molecule	VACV Venus inh	Vaccinia mCherry
CCCc1nnc(NC(=O)CN2C(=O)c3ccccc3C2=O)s1	-10%	x
Cc1c(C(=O)Nc2ccccc2)cc(-c2ccccc2)n1CCCN1CCOCC1	-7%	-23%

Next results
Molecule	VACV Venus inh	Vaccinia mCherry
O=C(COC(=O)Cc1c[nH]c2ccccc12)NCCc1ccccc1	-3%	i
Cc1ccc2nc(NC(=O)C3CCCN(S(=O)(=O)c4cccc5nsnc45)C3)sc2c1 (centres undefined)	-28%	-21%
Cc1ccc(NC(=O)COC(=O)Cn2cnc3ccccc32)c(C)c1	-4%	i
CSCCC(NS(=O)(=O)c1ccc(Cl)cc1)C(=O)OCc1c(Cl)cccc1Cl (centres undefined)	-16%	-1%
CCCCN1C(=O)c2ccc(C(=O)Nc3cccc(C)c3C)cc2C1=O	-5%	i
Cc1ccc2[nH]c3c(=O)n(CC(=O)NCCc4ccc(Cl)cc4)ncc3c2c1	0%&-3%	-14%&12%
CCc1c(C)nc2[nH]ncn2c1=O	-6%	i
Cc1ccc(NC(=O)C2CC(=O)NC(N3CCCCC3)=N2)cc1Cl (centres undefined)	-18%	-19%
CCN(CC(=O)NCc1cccs1)C(=O)CCOc1ccccc1C	-10%	-11%
CC(C)C(NS(=O)(=O)c1cccs1)C(=O)NCc1ccccc1 (centres undefined)	3%	-7%
CCOc1ccc(-n2c(C)nc3cc(C(=O)NCCC4=CCCCC4)ccc32)cc1	-7%	-7%
CCOc1ccc(/C=C/C(=O)Oc2ccccc2)cc1	-10%	-13%
NC(=S)NN=C1c2cc(OCCN3CCOCC3)ccc2-c2ccc(OCCN3CCOCC3)cc21	u	u
CC(Sc1nc2ccccc2c(=O)n1C)C(=O)N(C)C1CCCCC1 (centres undefined)	-24%	-10%
CCOc1ccc(-c2nnc(NC(=O)c3ccc(OCC(C)C)c(OC)c3)o2)cc1	-15%	-11%[1.46 µM]
O=C(CNC(=O)c1cccc(F)c1)OCc1cc(=O)n2cc(Br)ccc2n1	-4%	i
Cc1nc(SCc2ccc(Cl)cc2)ncc1C(=O)O	0%	4%
CC(NC(=O)C(=O)NN=C1CCCCCCC1)c1ccccc1 (centres undefined)	-28%	-13%
O=C(OCC(=O)N1CCC(Cc2ccccc2)CC1)c1ccc[nH]c1=O	-21%	x
Clc1ccc(-n2nnnc2CN2CCOCC2)cc1Cl	-3%	-9%
CCn1nnnc1SCC(=O)N1N=C(c2cccs2)CC1c1cccs1 (centres undefined)	-11%	i
CCn1c(=O)c(C(=O)Nc2ccccn2)c(O)c2ccccc21	5%	-17%
Nc1nc(N)c2[nH]c(-c3ccccc3)nc2n1	-14%	-3%
CCCCCOc1ccc(C(O)C(CN2CCOCC2)c2ccccc2)cc1 (centres undefined)	u	-2%
CN(Cc1ccccc1)C(=O)CCc1ccccc1	-5%	-8%
CCOC1=C2CN(S(=O)(=O)c3ccc(C)cc3)C(c3ccccc3)CC2N(S(=O)(=O)c2ccccc2Cl)C(c2ccccc2)C1 (centres undefined)	3%	-1%
COc1ccc(NC(=O)Nc2c(C)n(-c3ccccc3)c(=O)n2C)cc1OC	-6%	x
CCC(C)C(NC(C)=O)C(=O)NC(=O)NC(c1ccccc1)c1ccccc1 (centres undefined)	-10%	i
CC(=O)OCCN1c2ccccc2Sc2cnccc21	-15%	i
Cc1ccc(COc2ccc(S(=O)(=O)N3CCCC3)cc2C(N)=O)cc1	-8%	i

(more compounds)
Molecule	VACV Venus inh	Vaccinia mCherry
Cc1ccc(C(O)CN2C3=NCCN3c3ccccc32)cc1 (centres undefined)	u	x
C=CCOc1ccc(C[C@H](N)C(=O)NC[C@H]2O[C@@H](n3ccc(N)nc3=O)[C@H](O)[C@@H]2O)cc1	-19%	-17%
CCOC(=O)C1=C(C)NC2=C(C(=O)CCC2)C1c1coc2ccccc2c1=O (centres undefined)	-8%	-10%
Fc1ccccc1CNC(=S)Nc1ccc(Cl)cc1	u	-6%
CC(=O)N(c1ccccc1)C1SC(=O)N(c2ccccc2)C1=O (centres undefined)	-4%	-20%
COc1c(C)cc(C(=O)C2CCCN(C(=O)c3ccc4[nH]ccc4c3)C2)cc1C (centres undefined)	-4%	i
CN(CCc1cnn(C)c1)Cc1cn(C)nc1-c1ccccc1F	-3%	-5%
COc1ccc(/C=C/C(=O)OCC(=O)Nc2cccc(S(=O)(=O)NC3=NCCCCC3)c2)cc1	-6%	-28%
CCC1CCCCN1CCCNC(=O)CCCOc1cc(=O)n(C)c2ccccc12 (centres undefined)	3%	i
CC(=O)c1ccc(-c2ccc(C(=O)NC3CCCCCC3)o2)cc1	2%	i
Cc1cnc([N+](=O)[O-])n1CCOC(=O)NC(=O)c1cccc(F)c1	-6%	-5%
CC/C(=N\NS(=O)(=O)c1ccc(C)cc1)c1ccco1	-11%	-5%
Cc1ccc(C(=O)NNC(=S)NC(=O)c2ccco2)cc1	-7%	-15%
O=C(Nc1cc2c3c(c1)CC(=O)N3CCC2)c1c(F)cccc1F	-16%	-7%
CN(CCc1ccccc1)C(=O)c1ccc(NC(=O)Cc2ccc(NC(=O)C3CCN(C(=O)C4CCCC4)CC3)cc2)cc1	u	u
FC(F)(F)c1nc2ncc(Cl)cc2[nH]1	-10%	i
O=[N+]([O-])c1ccc(NC(=S)NCCc2ccc(F)cc2)cc1	u	u
CCCNC(=O)NC(C)C12CC3CC(CC(C3)C1)C2 (centres undefined)	-24%	-3%
COc1ccccc1Nc1nc(-c2ccccc2F)nc2ccccc12	-29%	u
COc1cccc(C(c2c(C)[nH]n(-c3ccccc3)c2=O)c2c(C)[nH]n(-c3ccccc3)c2=O)c1OC	-15%	-4%
Cn1c(C(=O)OC(C(=O)NC2CCCCC2)c2ccncc2)cc2sccc21 (centres undefined)	-2%	-8%

Laid out differently: results already given
Order of values: VACV Venus inh, Vaccinia mCherry
Cc1ccc(C(O)CN2C3=NCCN3c3ccccc32)cc1 (centres undefined)
 : u, x
C=CCOc1ccc(C[C@H](N)C(=O)NC[C@H]2O[C@@H](n3ccc(N)nc3=O)[C@H](O)[C@@H]2O)cc1
 : -19%, -17%
CCOC(=O)C1=C(C)NC2=C(C(=O)CCC2)C1c1coc2ccccc2c1=O (centres undefined)
 : -8%, -10%

Rows were taken by chance. Share with any hit: about 0.88%.
